# CtBP-E1A blk – qHTS Assay for Inhibitors of the CtBP/E1A Interaction; AlphaScreen GST-E1A/His-CtBP binding, 1536-well; stronger effect = lower value; control for the full effect not named in the record; activity change, % (no concentration beside the values); actives 0.49% (n = 340,000); in the data active means activity change below about -65%; inconclusive means about -30% to -65%; inactive means above about -30%; further: on the % scale 0 is the no-effect control and ±100 the full control effect; compound concentration not given in the record
#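 AlphaScreen with 125 nM GST-E1A and 125 nM His-CtBP (5X stocks) in Tris pH 8.0, 300 mM NaCl, BSA, Tween 20, TCEP. Compounds preincubated 2 h at 37 deg C, then glutathione donor/nickel acceptor beads added for 1 h at 37 deg C in dark.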
# Six1-Eya2 inh – qHTS Assay for Inhibitors of the Six1/Eya2 Interaction; AlphaScreen GST-Six1/His-Eya2 binding, biochemical; stronger effect = lower value; control for the full effect not named in the record; AID 651725, 2012; activity change, % (test concentration not listed); actives 0.56% (n = 360,000); in the data active = activity change below about -65%; inconclusive = about -30% to -65%; inactive = above about -30%; further: on the % scale 0 is the no-effect control and ±100 the full control effect; compound concentration not given in the record
#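 Six1/Eya2 binding was read as AlphaScreen signal after compounds were pinned into GST-Six1 plus His-tagged Eya2 (5X stock 250/500 nM) in pH 8.0 Tris/NaCl/TCEP buffer, beads added, then incubated 1 h, 37 C, dark.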
# TRPML1 blocker – qHTS for Inhibitors of the Human Mucolipin Transient Receptor Potential 1 (TRPML1). Mucolipin-1 (Homo sapiens), Q9GZU1. TRPML1-inducible cells, Ca2+ dye fluorescence, FDSS; stronger effect = lower value; inhibition of EC80 agonist-evoked calcium signal. activity change, negative = inhibition, % (test concentration not listed). actives 0.02% (n = 390,000). AID 624415, 2012; in the data active means activity change below about -50%; inconclusive means about -30% to -50%; inactive means above about -30%;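 further: stimulus is agonist 54-4 at its EC80 concentration; on the % scale 0 is the no-effect control and ±100 the full control effect; compound concentration not given in the record; the text of the record puts the active cut at -80%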
# Target sequence (Q9GZU1 whole entry, looked up): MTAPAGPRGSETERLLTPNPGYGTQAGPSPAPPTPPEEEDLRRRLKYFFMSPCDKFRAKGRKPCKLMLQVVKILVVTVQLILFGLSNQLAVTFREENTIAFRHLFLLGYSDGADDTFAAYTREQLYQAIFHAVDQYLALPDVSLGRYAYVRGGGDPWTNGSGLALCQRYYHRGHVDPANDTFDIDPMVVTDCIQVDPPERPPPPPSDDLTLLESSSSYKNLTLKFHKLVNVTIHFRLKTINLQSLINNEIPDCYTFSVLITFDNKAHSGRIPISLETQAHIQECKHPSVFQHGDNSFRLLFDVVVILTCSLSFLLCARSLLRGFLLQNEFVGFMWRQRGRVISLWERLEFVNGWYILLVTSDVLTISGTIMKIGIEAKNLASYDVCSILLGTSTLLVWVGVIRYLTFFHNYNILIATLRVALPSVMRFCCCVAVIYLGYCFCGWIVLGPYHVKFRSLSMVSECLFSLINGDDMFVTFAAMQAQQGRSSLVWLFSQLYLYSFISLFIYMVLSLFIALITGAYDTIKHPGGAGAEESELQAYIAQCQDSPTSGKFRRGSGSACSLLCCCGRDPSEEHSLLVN
#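 Calcium fluorescence in TRPML1-DL cells induced overnight with Tet: a 110 s read after compound pin addition, then a 110 s antagonist read after challenge with 54-4 at 4 uM final (EC80).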
# TRPML1 agonist – qHTS for Agonists of the Human Mucolipin Transient Receptor Potential 1 (TRPML1). actives 0.12% (n = 410,000). TRPML1-expressing cells, Ca2+ dye fluorescence, FDSS; host cell line not named in the record; reference of the full effect not given here. activation, % (no concentration beside the values); in the data active = activation above about 50%; inconclusive = about 30% to 50%; inactive = below about 30%; further: 0% is about no effect; the text of the record puts the active cut at 80%
#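 Kinetic FDSS Ca2+ read in Tet-induced TRPML1-DL cells (ABD Ca8 dye plus quencher, 45-90 min RT loading): baseline, then compound, then 110 s agonist window; EC80 agonist 54-4 at 4uM final added afterwards for a 110 s antagonist window.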
# PINK1 expr mod – A Quantitative High throughput Screen to Identify Chemical Modulators of PINK1 Expression; PINK1 immunofluorescence, high-content cytometry, 24 h; actives 0.2% (n = 410,000); Potency, µM (titrated, usually from 76.6 µM), for the others: at the highest dose activation (PINK1 increase), usual class: activators; active = well fitted activation curve with a large enough effect; inconclusive = small, poorly fitted or top-dose-only effect; inactive = flat fitted curve, though single readings scatter; cell line not stated here;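 further: potency means the concentration at half of the fitted maximal effect; % of control where 0% means no effect; nearly all actives have a fitted effect of over 65% in size; a mitochondrial uncoupler was the plate control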
#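 Cells are seeded, rested 12 hours, then given compound at five concentrations or DMSO for 24 hours. After fixation, blocking and antibody staining, PINK1 amount and mitochondrial localization are scored; CCCP serves as control.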
# D2 agonist – Beta-Arrestin HTS for Positive Allosteric Modulators of the Human D2 Dopamine Receptor: Agonists. DiscoveRx PathHunter D2 beta-arrestin, luminescence, 90 min; 100% = 57 uM dopamine signal. activation, % (test concentration not listed). actives 0.084% (n = 360,000); in the data active = activation above about 40%; inconclusive = about 15% to 40%; inactive = below about 15%; further: compound concentration not given in the record; the text of the record calls up to 30% inactive
# Target sequence (P14416 whole entry, looked up): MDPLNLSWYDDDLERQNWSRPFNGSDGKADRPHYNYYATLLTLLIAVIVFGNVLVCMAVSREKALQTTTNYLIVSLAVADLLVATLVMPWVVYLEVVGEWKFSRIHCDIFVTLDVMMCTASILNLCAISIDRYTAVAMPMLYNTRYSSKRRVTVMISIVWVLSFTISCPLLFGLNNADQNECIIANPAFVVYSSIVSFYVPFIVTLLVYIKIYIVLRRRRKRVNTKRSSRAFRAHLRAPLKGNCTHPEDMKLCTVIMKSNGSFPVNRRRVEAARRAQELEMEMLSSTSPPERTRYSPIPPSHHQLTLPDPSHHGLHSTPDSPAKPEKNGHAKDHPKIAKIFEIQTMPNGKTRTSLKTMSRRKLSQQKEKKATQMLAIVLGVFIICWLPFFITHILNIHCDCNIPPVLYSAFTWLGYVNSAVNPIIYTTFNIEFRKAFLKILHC
#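 Agonist mode: compounds alone added to overnight-plated D2 PathHunter cells for 90 min at 37 C, with 57 uM final dopamine (EC100) defining full response. Beta-arrestin recruitment detected by chemiluminescent reagent, read after 1 h at ambient temperature.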
# * marks the source's active call; other numbers are inactive results; ? = inconclusive; . = not tested or not shown; & = joins results of further samples; [ ] = remark or other dose.
SMILES,CtBP-E1A blk,Six1-Eya2 inh,TRPML1 blocker,TRPML1 agonist,PINK1 expr mod,D2 agonist
O=C1CC(N2CCSCC2)C(=O)N1c1ccc(F)cc1 (stereo unspecified),5,3,-14,-0.3,-1.4%,-8.7
O=C(c1ccco1)N1CCN(C(c2cccs2)c2sc3ncnn3c2O)CC1 (stereo unspecified),-3,-1,7,-0.4,-0.4%,-2.1
CC1Cc2ccccc2N1C(=O)CN1CCN(Cc2ccccc2)CC1 (stereo unspecified),2,4,2,3.0,-3.4%,-0.1
FC(F)(F)c1cccc(N2CCC(N=CN3CCCCCC3)=N2)c1,.,?,4,-0.9,0.4%,-3.7
O=C(c1ccc(N2C(=O)C3C4CC(C(Br)C4Br)C3C2=O)cc1)N1CCCCC1 (stereo unspecified),-1,3,-2,11,1.3%,1.5
COc1ccc(CCNC(=O)CSc2nnnn2Cc2ccc3c(c2)OCO3)cc1OC,4,2,3,-1.5,-1.0%,-2.3
CC(=O)Nc1ccc(S(=O)(=O)N2CCN(C34CC5CC(CC(C5)C3)C4)CC2)cc1,2,0,-5,-1.0,-0.4%,-5.1
C[C@@H]1O[C@H](C2CC2)Cc2[nH]c(=S)[nH]c(=O)c21,4,0,.,-0.3,-0.5%,.
CCS(=O)(=O)N1CCC(C(=O)NCCCN2CCCC2)CC1,11,0,1,-0.4,-1.0%[38.3 µM],-1.7
CCCCNC(=S)N(C)/N=C/c1c(F)cccc1F,11,34,16,0.6,2.1%,0.4
C[C@@H](NC(=O)c1cc2c([nH]c3ccccc32)c(-c2ccccc2)n1)C(=O)O,.,-23,9,0.4,1.5%,-1.3
COc1ccc(C(=O)CCC(=O)Nc2cccnc2)cc1,-1,2,-23,1.4,-0.2%,1.5
COc1ccc(Cl)cc1C(=O)OCC(=O)Nc1cccnc1Cl,.,5,-8,0.8,0.5%,2.1
Fc1cccc(Nc2nc(Cl)nc(Cl)n2)c1,4,35,-12,-0.7,5.1%,-1.7
CC(C)COc1ccc(Br)cc1CNC(C)(C)C,5,0,17,-0.7,2.9%,-1.7
CCc1c(C)nc2c(-c3ccccc3)c(C)[nH]n2c1=O,-25,-23,2,1.4,-1.4%,2.3
CCN(C(=O)COC(=O)/C=C/c1ccc(F)cc1)C1CCCCC1,-6,5,23,0.3,0.1%,-2.6
Cc1ccc(-c2csc3ncn(CC(=O)OC(C)C)c(=O)c23)cc1,7,-1,-5,0.4,0.2%,-1.9
Cc1ccccc1-c1nnc(CN2CCN(c3cccc(C)c3C)CC2)o1,.,.,-29,-0.4,-1.2%,.
Cc1ccccc1C(=O)Nc1cccc(C(=O)OCc2cc(=O)n3c(C)csc3n2)c1,.,.,-15,0.1,0.4%,.
Cc1ccccc1NC(=O)Nc1ccc2c(c1)CCC2,6,-9,-28,0.0,4.5%,-8.5
COC(=O)c1c(-c2ccccc2OC)sc2ccccc12,19,19,18,-0.6,2.6%,-0.6
Cc1cccc(OCC(=O)Nc2ccccc2N2CCCCC2)c1C,18,12,-17,0.0,?,-2.8
O=C(c1ccco1)N1CCCC(Nc2ccc3c(c2)OCCO3)C1 (stereo unspecified),-3,-3,33,1.4,0.1%,0.2
O=C(O)C1OC(Oc2c(-c3ccc(O)c(O)c3)oc3cc(O)cc(O)c3c2=O)C(O)C(O)C1O (stereo unspecified),.,?,13,0.4,0.8%,-1.0
Cc1cccn2c(=O)c(C(=O)NCc3ccccc3Cl)c(O)nc12,.,.,-1,-0.8,-0.2%,.
COc1ccc(NC(=O)CSc2n[nH]c(-c3ccco3)n2)cc1,7,15,-11,0.8,-1.1%,-2.8
CC(=O)c1ccc2noc(-c3ccc(C)cc3)c2c1,17,2,17,0.4,0.9%,3.9
CC1=C(Cl)C2=NS(=O)(=O)CCN2C=C1Cl,26,-12,-16,0.2,3.6%,3.3
CC(C)c1cccc(C(C)C)c1NC(=O)CNCC(O)c1ccccc1 (stereo unspecified),33,8,-17,1.3,-0.5%,-3.3

# Look-ups from above:
# `CC(=O)c1ccc2noc(-c3ccc(C)cc3)c2c1` in PINK1 expr mod has 0.9%
# `COc1ccc(NC(=O)CSc2n[nH]c(-c3ccco3)n2)cc1` in D2 agonist has -2.8

# Reformatted as tab-separated lines: two of the compounds above.
Compound	CtBP-E1A blk	Six1-Eya2 inh	TRPML1 blocker	TRPML1 agonist	PINK1 expr mod	D2 agonist
Cc1cccn2c(=O)c(C(=O)NCc3ccccc3Cl)c(O)nc12	.	.	-1	-0.8	-0.2%	.
COc1ccc(NC(=O)CSc2n[nH]c(-c3ccco3)n2)cc1	7	15	-11	0.8	-1.1%	-2.8

# (list continues)
SMILES,CtBP-E1A blk,Six1-Eya2 inh,TRPML1 blocker,TRPML1 agonist,PINK1 expr mod,D2 agonist
C[C@@H]1CN([C@@H](C)CO)S(=O)(=O)c2ccc(Br)cc2O[C@H]1CN(C)C(=O)CN(C)C,-10,-14,-9,-0.1,0.6%,-12
COc1ccc(N(C(=O)c2ccc3c(c2)OCO3)C2C=CS(=O)(=O)C2)c(OC)c1 (stereo unspecified),2,5,-16,0.3,0.6%,5.4
Nc1ccc(S(=O)(=O)Nc2nccc(/C=C/c3cccc([N+](=O)[O-])c3)n2)cc1,-11,-11,-7,0.1,3.8%,-2.1
COC(=O)[C@H](C)[C@@H]1C[C@@]1(C)[C@@H](NC(=O)OCc1ccccc1)c1ccccc1,-19,1,-3,2.3,3.0%,0.4
CC1(C(=O)Nc2ccc3c(c2)OCCO3)CCC(=O)N1C1CC1 (stereo unspecified),7,1,.,0.1,0.9%,1.7
Cc1cccc(OCC(=O)Nc2ccccc2N2CCN(C)CC2)c1,-8,0,-17,-0.6,0.1%,-5.2
O=C(NC(=S)Nc1ccc2oc(-c3cccnc3)nc2c1)c1cccc(Cl)c1,-7,19,-7,-0.2,3.9%,-3.1
CCN(CC)Cc1c(C(=O)N/N=C/c2cccc(OCc3cccc(Cl)c3)c2)nnn1-c1nonc1N,.,5,3,0.9,1.6%,-3.5
O=C(NCc1nnc(SCC(=O)N2CCCCCC2)o1)c1ccco1,5,23,2,-0.2,0.2%,-1.0
CN1CCN(C(=O)c2cnn(-c3cccc(Cl)c3)c2C2CCN(C(=O)OC(C)(C)C)CC2)CC1,.,.,3,0.6,-0.4%,.
Nc1nonc1/C(=N/O)N1CCCC1,3,5,-1,2.6,1.1%,-1.3
Cc1cc(N2C(=O)c3ccc(C(=O)NCc4ccccc4)cc3C2=O)no1,9,7,-10,0.8,-1.7%[38.3 µM],-4.6
Cc1ccc(NC(=O)CCOc2ccccc2C)cc1C,14,5,4,1.0,4.8%,2.0
Cn1cnc([N+](=O)[O-])c1Nc1cccc(O)c1,-3,11,35,1.4,3.1%,-0.1
Cc1ccccc1CN1C(=O)c2ccccc2S1(=O)=O,5,12,-6,1.0,-0.3%,-5.1
CCOC(=O)C1C(c2cc(OC)c(O)c(OC)c2)NC(=S)NC1(O)C(F)(F)F (stereo unspecified),0,0,9,0.2,4.1%,-2.2
CCOC(=O)C1CCN(C(=O)COc2ccc(S(=O)(=O)N3CCOCC3)cc2C)CC1,-6,-2,-5,0.5,-1.1%,3.3
S=C(NCCN(C1CCCCC1)C1CCCC1)Nc1cccc(Cl)c1,-3,-6,6,-0.8,-4.2%,-9.4
Cc1ccccc1C(=O)N1CCc2c([nH]c3ccccc23)C1C(F)(F)F (stereo unspecified),5,2,19,0.2,4.4%,4.0
Cc1ccc(NC(=O)NCCc2ccc(S(N)(=O)=O)cc2)cc1,0,10,-2,0.4,-1.2%,2.4
CCOC(=O)c1cc(=O)c2ccc(OCC(=O)Nc3ccccc3)cc2o1,1,0,13,1.5,6.3%,8.0
C=CCc1ccc(OCCCN2CCCC(C)C2)c(OC)c1 (stereo unspecified),-6,0,-2,-0.8,-1.5%,-1.1
CCc1cccc(CC)c1NC(=S)NCCc1ccc(O)c(O)c1,-14,-10,-23,2.5,3.5%,11
Cc1cc(C)cc(NC(=O)C2CC3CCC2C3)c1 (stereo unspecified),16,5,27,0.3,2.4%,-2.2
COC(=O)C1=C(COc2ccccc2)NC(=O)NC1c1ccc(Cl)cc1 (stereo unspecified),-13,-6,-12,-0.4,0.3%,-1.2
CC(C)C[C@H]1CN=C(Nc2ccccc2)N1CCCC1CCCC1,0,-1,1,0.3,?,-5.5
Cc1cccc(NC(=O)c2sc3nc(-c4ccccc4)cn3c2C)c1C,.,.,46,4.0,-0.2%,.
COc1cccc(N2CCN(S(=O)(=O)c3ccc(CN4C(=O)c5cccnc5C4=O)cc3)CC2)c1,4,5,16,1.3,2.6%,4.6
Clc1ccccc1Oc1cnc2ccccc2n1,35,26,-20,2.3,7.8%[38.3 µM],-1.4
O=C(Nc1ccon1)c1csc2c1CCCC2,-1,1,-5,1.3,-1.3%[38.3 µM],-2.0

# Complete entries, quoted from the list. Values in the order: CtBP-E1A blk	Six1-Eya2 inh	TRPML1 blocker	TRPML1 agonist	PINK1 expr mod	D2 agonist
# `COC(=O)C1=C(COc2ccccc2)NC(=O)NC1c1ccc(Cl)cc1` (stereo unspecified) in the list: -13	-6	-12	-0.4	0.3%	-1.2
# `CCS(=O)(=O)N1CCC(C(=O)NCCCN2CCCC2)CC1` in the list: 11	0	1	-0.4	-1.0%[38.3 µM]	-1.7

# (further entries)
SMILES,CtBP-E1A blk,Six1-Eya2 inh,TRPML1 blocker,TRPML1 agonist,PINK1 expr mod,D2 agonist
Cc1ccc(/C(N)=N/OC(=O)CCc2ccccc2)cc1,40,49,3,-0.7,3.8%[38.3 µM],0.8
Cc1ccc(S(=O)(=O)N2CCC(C(=O)N3CCN(c4ccccn4)CC3)CC2)cc1,7,-1,5,0.6,-0.3%,-6.1
Cc1cc(C)cc(OCCCCCNCCO)c1,0,2,-6,1.5,-4.4%[38.3 µM],0.1
CCOC(=O)C1CCN(C(=O)CN2C(=O)c3ccccc3Sc3ncccc32)CC1,0,0,-1,0.0,-1.4%,-1.8
Cc1ccc(-c2nnc(Nc3ccc(C(N)=O)cc3)c3ccccc23)cc1S(=O)(=O)N1CCCCC1,.,.,-23,1.3,9.2%,.
C/C=C/c1cc(OC)c2c(c1)[C@H](C)[C@@H](c1ccc(O)c(OC)c1)O2,-9,-8,.,.,4.1%,-4.1
Cc1ccc(Cl)cc1N1CCN(C(=O)c2cc3c(=O)n(C)c4ccccc4c3s2)CC1,.,.,-2,-0.8,0.9%,.
CCOC(=O)N1CCC(Nc2c(-c3ccc(C)cc3)c(=O)c2=O)CC1,3,0,-6,-1.3,1.3%,-1.4
COc1cccc2sc(Nc3nnc(-c4ccc(F)cc4)o3)nc12,2,-7,7,-0.8,-1.9%,5.3
COc1ccc(N/N=C(/C(N)=O)C2=NC(C)(C)Cc3ccccc32)cc1,?,?,18,2.2,-1.4%,-5.7
COc1cccc(-c2cc(C(=O)Nc3cc(C)nn3-c3ccccc3)no2)c1,0,6,-3&-2,-0.7&-0.5,-0.6%&7.0%,-3.4

# Bioassay records deposited in PubChem by National Center for Advancing Translational Sciences (NCATS).
